Tgondii IFNg: T. gondii growth inhibition with IFN-gamma, primary screen, cell-based | activity change, negative = inhibition, %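 (about 20 µM by stock and volumes)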 | Toxoplasma gondii growth in IFN-gamma-treated host cells; active compounds read low; reference of the scale not given here | 69,000 compounds, 3.8% hits | AID 1259416, 2018;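 active = below -70%; inconclusive = fit judged invalid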;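 also: host cells are HeLa cells infected with Toxoplasma gondii; parasite growth read as luciferase light; one replicate is shown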
* hit, by the source's call; i = inactive; ? = inconclusive; & = joins results of further samples. The list is partial (hit frequency here may not be typical).

structure,Tgondii IFNg
Cc1ccc(N2CC(C(=O)NCCc3nc(C(C)(C)C)cs3)CC2=O)c(C)c1 (stereo not given),7
CCc1noc(CC)c1C(=O)Nc1nc(-c2ccc(OC)c(OC)c2)cs1,-82*
Cc1ccccc1-n1cc(C#N)c(=O)[nH]c1=O,-6
COCCN(CCOC)C(=O)c1ccc2ccc(N3CCC(C)CC3)n2c1,-88*
CC(=O)N1CC(=O)N(c2ccccc2)CC12CCN(S(=O)(=O)C1CC1)C2 (stereo not given),-37
COc1ccc(S(=O)(=O)N(C)C[C@@H]2Oc3c(NC(=O)c4nc5ccccc5s4)cccc3C(=O)N([C@@H](C)CO)C[C@@H]2C)cc1,-8
O=C(NCc1ccc(Cl)cc1)c1nc(N2CCOCC2)c2ccccc2n1,-48
CCCNC(=O)N1CC2(C1)[C@@H](c1ccccc1)[C@@H](CO)N2CC1CCOCC1,-56
CCSCCn1c(=O)n(Cc2ccc(F)cc2)c2ncc(C(=O)O)cc21,-13
CCN(Cc1cnn(CC)c1)C(=O)c1ccc(NC(=O)C2CCC2)cc1,3
O=C(C1CCCN(Cc2cc3n(n2)CCNC3)C1)N1CCOCC1 (stereo not given),0
Cn1c(CNC(=O)C2CCC2)nc2c1CN(C(=O)Nc1ccc(C(F)(F)F)cc1)CC2,-34
COCCN1C(=O)CCc2cc(NC(=O)c3cc(C)ccc3C)ccc21,-8
C=C1C2(C(=O)N3CCC(COC)C3)CCC(C2)C1(C)C (stereo not given),9
O=C1[C@@H]2CN(c3ccccn3)C[C@@H]2CN1c1cccnc1,-1
COCCCNC(=O)c1ccc(-c2nc(CN3CCN(c4ccccc4)CC3)c(C)o2)cc1,87
CC(NC(=O)C1CCN(c2nc3ccccc3n2C)CC1)c1cccs1 (stereo not given),16
CCc1cccc(NC(=O)Cn2ncc3c(N4CCN(c5ccccc5)CC4)ncnc32)c1,-82*
O=C(c1cc(F)cc2c1OCOC2)N1CCN(C2c3ccccc3-c3ccccc32)CC1,-43
Cc1cc(F)ccc1NC(=O)C1CCN(S(=O)(=O)c2ccc3[nH]c(=O)ccc3c2)CC1,19
COc1ccc(C2CC(=O)Nc3cc(O)c(C)cc32)cc1Cn1cccn1 (stereo not given),2
CCn1c(=O)c(C(=O)Nc2ccc(Cl)cc2)c(O)c2ccccc21,23
CC(=O)NCc1csc(C2CCCN(S(=O)(=O)c3ccc(F)cc3F)C2)n1 (stereo not given),9
Cc1ccc2c(c1)C(=O)NC1(CCN(C(=O)c3ccc4c(c3)OCO4)CC1)N2C,19
COc1cccc(CN(C)Cc2nc3ccc(C)cc3[nH]2)c1O,5
COc1ccc(-c2nnc(-c3nc(NCc4ccc(Cl)cc4)c4ccccc4n3)o2)cc1,96
Cc1cc2cc(NC(=O)CN3C(=O)NC(C)(c4ccccc4)C3=O)cc(Cl)c2o1 (stereo not given),-77*
C[C@]12CC[C@@H]3c4cc(O)c(O)cc4CC[C@H]3[C@@H]1CC[C@@H]2O,-67
COc1ccccc1C(=O)Nc1ccc2c(c1)C(=O)N(C)C[C@H](OC)[C@H](C)CN(C(C)=O)[C@H](C)CO2,258
CC(O)CNc1ncnc2scc(-c3ccccc3)c12 (stereo not given),-52
CNC[C@H]1Oc2c(N)cccc2C(=O)N([C@H](C)CO)C[C@H]1C,19
COc1cccc(OC)c1C(=O)N[C@@H]1C(=O)N2[C@@H]1SC(C)(C)[C@@H]2C(=O)O,13
CS(=O)(=O)N1CC(=O)N2[C@H](C1)[C@H](c1ccc(C#CCC3CCCC3)cc1)[C@@H]2CO,-49
c1ccc(CNc2nc(N3CCOCC3)nc(N3CCOCC3)n2)cc1,-83*
Cc1ccc(NCc2nnc(SCc3ccc(C#N)cc3)n2Cc2ccco2)c(C)c1,65
O=C(O)CC(CC(=O)Nc1nn[nH]n1)c1ccccc1 (stereo not given),93
CCOC(=O)c1ncc2[nH]c3cccc(OC(C)C)c3c2c1C,3&18
Cc1nc(N(C)C)ncc1C(=O)N(Cc1ccncc1)CC1CCCO1 (stereo not given),33
COc1ccc2c(c1)SC1=NC(=O)C(Cc3ccccc3)C(=O)N12 (stereo not given),8
Cc1cc(C(O)CN2CCN(c3ccc4c(c3)OCCO4)CC2)c(C)s1 (stereo not given),96
COc1ccc(C(=O)N(Cc2cccc(OC)c2)C2(C(=O)NCc3ccccc3)CCN(C(C)=O)CC2)cc1,-83*
Cc1nn(C)cc1NC(=O)C[C@@H]1CC[C@@H]2[C@H](COc3ccc(NC(=O)c4cccc(F)c4)cc3C(=O)N2C)O1,5
O=C(O)C1Cc2[nH]cnc2C(c2ccccc2O)N1 (stereo not given),31
Cc1cccc(-c2noc(CCC(=O)N3CCc4cc(Cl)ccc43)n2)c1,3
Cc1cc(CN2CCC3(CC2)CC(Nc2ncccn2)CO3)nn1C (stereo not given),-2
COc1c(C)cnc(CN(C)C(=O)c2cc(C(C)C)nn2C)c1C,-3
Cc1cc(N2CCCN(Cc3ccc(OC(F)F)cc3)CC2)ccn1,-29
CN1NC(c2ccc(Cl)cc2)/C(=N\OC(=O)c2ccc(Cl)cc2)SC1=S (stereo not given),44
CSc1sc(-c2ccn[nH]2)c(-c2ccccc2)c1C#N,-85*
O=C(c1ccc[nH]1)N1C[C@H]2CN(Cc3cccc(F)c3)C(=O)[C@@H]2C1,-2
CCC(=O)Nc1cccc(OCC(=O)NCC2COc3ccccc3O2)c1 (stereo not given),10
Cc1ccc(NC(=O)N2CCC(c3nc(C(=O)N(C)C)c(C)o3)CC2)cc1Cl,-50
O=C(NCCC1=CCCCC1)c1cc2cc(Cl)ccc2oc1=O,25
NC(=O)COc1cccc(CN2CCC3(CCNC(=O)CC3)CC2)c1,7
Nc1ccc2nc(-c3cccs3)[nH]c2c1,14
COc1ccc(CC(=O)N2CCC3(CC2)NC(=O)c2cc(C)ccc2N3C)cc1,-12
COc1ccccc1CNC(=O)c1cncc(NS(=O)(=O)c2ccc(NC(C)=O)cc2)c1,31
CN1CCC2(N3CCOCC3)C(C1)N=NN2c1cc(C(F)(F)F)cc(C(F)(F)F)c1 (stereo not given),8
CC(C)n1ncc(NC(=O)Cn2ccc(-c3ccc(C(F)(F)F)cc3)n2)n1,-48
COc1cccc(S(=O)(=O)N2CC[C@@H]3[C@H](CO)Nc4ccc(C5=CCCCC5)cc4[C@@H]32)c1,-70

Individual results from the list:
Cc1cc(CN2CCC3(CC2)CC(Nc2ncccn2)CO3)nn1C (stereo not given) in Tgondii IFNg = -2
Cc1nc(N(C)C)ncc1C(=O)N(Cc1ccncc1)CC1CCCO1 (stereo not given) in Tgondii IFNg = 33
CCOC(=O)c1ncc2[nH]c3cccc(OC(C)C)c3c2c1C in Tgondii IFNg = 3&18
Cc1cc(C(O)CN2CCN(c3ccc4c(c3)OCCO4)CC2)c(C)s1 (stereo not given) in Tgondii IFNg = 96

Following part:
structure,Tgondii IFNg
CCNC(=O)[C@H]1[C@H](CO)[C@H]2Cn3c(cccc3=O)[C@H]2N1C(=O)CC1CC1,23
O=c1c(-c2ccccc2)c(O)c2cccc3c2n1CCC3,-3
COCCN1C(=O)CCc2cc(NS(=O)(=O)c3ccc(C)cc3)ccc21,39
Cc1cc(C(=O)NCC2(O)CCCNCC2)sc1-c1ccccc1 (stereo not given),-1
COc1ccc2[nH]c(C(=O)NCCCn3cncn3)c(C)c2c1,5
Cc1noc(C)c1NC(=O)N1C[C@H](O)COC[C@@H]2O[C@H](CC(=O)N[C@@H]3CCN(Cc4ccccc4)C3)CC[C@H]21,5
COc1cc(NC(=O)Nc2ccc(-c3nc(-c4ccc(C)cc4C)co3)cc2)cc(OC)c1OC,-64
Cc1cc(-c2cnc(C)nc2C2CCN(C(=O)c3ccncc3)CC2)on1,30
CN1CCCC2(CC1)CCN(C(=O)c1cc3ccccc3n(C)c1=O)CC2,4
S=C(c1ccc2c(c1)OCO2)N1CCCCC1,-8
COc1ccc(Cl)cc1NS(=O)(=O)c1ccc2[nH]c(=O)ccc2c1,33
O=C(Nc1ccccc1)N1CC2CN(Cc3cccc(Cl)c3)C2C1 (stereo not given),-23
Cc1noc(C)c1S(=O)(=O)N(C)C[C@@H]1OCc2cn(nn2)CCCC(=O)N([C@@H](C)CO)C[C@H]1C,88
CCCc1ncc(-c2ccncc2C)c(C2CCCN2C(=O)c2sc(NC)nc2C)n1 (stereo not given),-13
COc1cccc(NC(=O)C(=O)NCCc2sc(-c3ccc(F)cc3)nc2C)c1,3
COc1cccc(CN2CCOCC2c2csc(C)n2)c1 (stereo not given),-26
COc1ccc(C)cc1-n1cnnc1CCN,2
CCNC(=O)c1ccc(-c2cccnc2OCC)s1,-18
CC(=O)N1CCCC2(CN(Cc3ccc(C)o3)CCO2)C1 (stereo not given),5
CCOc1ccccc1-c1nc(Cc2noc(-c3ccncc3)n2)c(C)o1,28
N#Cc1ccc(-c2ccc3c(c2)OCO3)nc1SCC(=O)Nc1cccc(F)c1,114
Cc1cccc(CO[C@@H]2C[C@@H]3CN(C(=O)c4cscn4)CCN3C2)n1,-3
Cc1ccccc1NC(=O)N1CCC2(CC1)Nc1cc(F)ccc1-n1cccc12,12
O=C(Cc1ccc(F)cc1)N1CCc2ncnc(C3CC3)c2CC1,4
COCCN1CCc2cc(C(=O)O)c(-c3ccnn3C)nc2CC1,381
COc1cc2c(cc1OC)C(C)N(C(=O)CCCC(=O)O)CC2 (stereo not given),1
Cc1ccc(C)c(S(=O)(=O)N2CC(=O)Nc3ccccc32)c1,7
O=C(NCCc1ccco1)C1CCCN(C2CCN(Cc3ccncc3)CC2)C1 (stereo not given),-2
CC(=O)c1ccc(N2CCOCC2)c(-c2ccc3c(c2)OCO3)c1,?
Cc1ccc(-c2nc(CN3CCN(C(=O)Nc4cc(Cl)ccc4C)CC3)c(C)o2)cc1,0

Pulled one by one from above:
structure,Tgondii IFNg
c1ccc(CNc2nc(N3CCOCC3)nc(N3CCOCC3)n2)cc1,-83*
Cc1ccc(C)c(S(=O)(=O)N2CC(=O)Nc3ccccc32)c1,7
COc1ccc(CC(=O)N2CCC3(CC2)NC(=O)c2cc(C)ccc2N3C)cc1,-12
CSc1sc(-c2ccn[nH]2)c(-c2ccccc2)c1C#N,-85*

Further results
structure,Tgondii IFNg
CC(=O)OCC1CCN(c2ncccc2C(=O)NCCCn2ccnc2)CC1,-33
CN(CCOP(=O)(O)O)C(=N)N,-11&25
O=C(c1cc(C2CC2)[nH]n1)N1C[C@H]2CC=CC[C@H]2C1,-8
O=C(NCCc1csc(-c2ccccc2)n1)c1ccc(F)c(F)c1,283
CC1CCC(NC(=O)CN2C(=O)CCc3cc(S(=O)(=O)N4CCOCC4)ccc32)CC1 (stereo not given),-25
CCn1nccc1C(=O)Nc1ccc2c(c1)CCC(=O)N2C,26
c1cncc(-c2nc3c(c(N4CCCC(Cn5ccnc5)C4)n2)CNC3)c1 (stereo not given),15
c1ccc(O[C@H]2CC[C@@H]3[C@H]2OCCN3c2ccncn2)nc1,-5
CCC1Oc2ccc(C(=O)c3ccco3)cc2NC1=O (stereo not given),15
CC1Cc2cc(C(=O)NC(c3cc(=O)[nH]c(-c4ccccn4)n3)C(C)C)ccc2O1 (stereo not given),39
CCOC(=O)c1nn(CC)c2c1CN(C(=O)c1cccc(-c3ccc(F)cc3)c1)CC2,-42
COc1cccc(-c2nn(CC3CC3)c3c2[C@@H]2CN(Cc4ccccc4)C[C@@H]2C3)c1,-19
CN(Cc1cc(-c2cccnc2)no1)S(=O)(=O)NCc1ccccc1,-42
N#CCN1CCC2(CC1)CC(=O)N(CC1CCCO1)c1ccccc12 (stereo not given),-25
CCCc1cc(C(=O)N2C[C@H]3OC(=O)N(CCc4ccccn4)[C@H]3C2)cs1,-4
Cc1nc(CC(=O)N2CCOC(C)(C(=O)NC3CCCC3)C2)cs1 (stereo not given),-3
Cc1cc2c(C(C)C)c(O)c(O)c(C=O)c2c(O)c1-c1c(C)cc2c(C(C)C)c(O)c(O)c(C=O)c2c1O,-11&-60
CCOC(=O)CSc1ccc(C(=O)O)c2c(C(=O)O)cccc12,29
Cc1nnnn1-c1ccc(CC(=O)NC(c2ccncc2)c2cccs2)cc1 (stereo not given),-18
CCCOc1ccc(-c2cc(C(=O)NCC3CCCO3)c3ccccc3n2)cc1 (stereo not given),90
CC(C)(O)C#Cc1ccc(CN2CCCN(C(=O)C3CCC3)CC2)s1,8
CCOc1ccc(N2C(=O)CC(NCCNc3ccc([N+](=O)[O-])cn3)C2=O)cc1 (stereo not given),-11
Cc1noc(C)c1NC(=O)N(C)C[C@H]1Oc2ccc(NC(=O)Cc3cn(C)c4ccccc34)cc2CC(=O)N([C@H](C)CO)C[C@@H]1C,3
N#C[C@H]1N[C@@H](CO)[C@@H]1c1ccc(-c2cccc(F)c2)cc1,-3
O=c1ccc2cc(S(=O)(=O)N3CCN(c4ccccn4)CC3)ccc2[nH]1,i
Cn1c(CCC(=O)Nc2cccc(Cn3cncn3)c2)nc2cc(Cl)ccc21,21
COc1cccc(NC(=O)N[C@@H]2C=C[C@@H](CC(=O)NCc3ccncn3)O[C@H]2CO)c1,35
CO[C@H]1CN(C)C(=O)c2ccc(NC(=O)Nc3cc(F)ccc3F)cc2OC[C@@H](C)N(C(=O)c2ccccn2)C[C@H]1C,18
COc1ccc(C2c3[nH]c4ccccc4c3CCN2C(=O)c2cccnc2)cc1 (stereo not given),256

Two entries from above, as labelled records.
O=C(NCCc1csc(-c2ccccc2)n1)c1ccc(F)c(F)c1
- Tgondii IFNg: 283

c1cncc(-c2nc3c(c(N4CCCC(Cn5ccnc5)C4)n2)CNC3)c1 (stereo not given)
- Tgondii IFNg: 15

Screening results: PubChem, Broad Institute
